From PubChem BioAssay
Lassa entry inh – blocks Lassa virus binding to or entry into cells; Lassa virus pseudotype entry inhibition, cell reporter; control for the full effect not named in the record; Potency, µM (highest dose often 37.9 µM), for inactives: at the top dose activity change, negative = inhibition, usual class: inhibitors; 1.2% of 300,000 active; active means well fitted inhibition curve with a large enough effect; inconclusive means small, poorly fitted or top-dose-only effect, or effect the other way; inactive means flat fitted curve, though single readings scatter; tested in HEK293 cells; note: % is set by controls: 0 for no effect and ±100 for the full control effect; nearly all actives have a fitted effect of over 50% in size; luciferase read-out
RE007 growth inh – less growth of the S. pombe RE007 Vpr strain; Potency, µM (doses to about 92.2 µM), for inactives: at the top dose activity change, negative = less growth; S. pombe RE007 Vpr strain, BacTiter-Glo ATP luminescence, 24 h; control for the full effect not named in the record; AID 651644; 0.21% of 360,000 active; active = well fitted falling curve with a large enough effect; inconclusive = small, poorly fitted or top-dose-only effect; inactive = no such curve, though single readings can be large or run the other way;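 note: % is set by controls: 0 for no effect and ±100 for the full control effect; nearly all actives have a fitted effect of over 50% in size; the assay follows cell death caused by Vpr and the record does not say whether a fall means rescue or toxicity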
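Fission yeast strain RE007, carrying one chromosomally integrated HIV-1 vpr copy, was seeded at OD 0.01 in PMG+AL medium with 23 nL pinned compound. After 24 h at 30 °C and 99% humidity, viability was read by BacTiter-Glo luminescence.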
Cruzain noTriton – blocks cruzain activity in detergent-free assay | P25779 | 2.3% of 200,000 active | Potency, µM, inactives show max response, negative = inhibition, usual class: inhibitors | purified cruzain, Z-FR-AMC fluorescence, no detergent;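 note: plate controls were enzyme without inhibitor for no effect and buffer without enzyme for full effect; nearly all actives have a fitted effect of over 40% in size; top concentration of the series not given in the record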
Target sequence (P25779 123-467 limits assumed): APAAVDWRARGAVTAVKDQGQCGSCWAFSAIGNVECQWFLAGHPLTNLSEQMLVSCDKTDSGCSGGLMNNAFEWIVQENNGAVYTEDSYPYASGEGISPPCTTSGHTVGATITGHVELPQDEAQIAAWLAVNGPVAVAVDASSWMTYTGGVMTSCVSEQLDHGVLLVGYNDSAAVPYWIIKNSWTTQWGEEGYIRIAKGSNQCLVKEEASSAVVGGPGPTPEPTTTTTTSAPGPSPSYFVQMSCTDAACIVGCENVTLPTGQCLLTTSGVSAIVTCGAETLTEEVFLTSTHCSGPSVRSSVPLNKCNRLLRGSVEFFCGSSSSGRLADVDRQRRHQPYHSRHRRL
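Purified cruzain at 1.5 nM, pre-incubated 15 min with compound at room temperature in 100 mM sodium acetate pH 5.5, 5 mM DTT, 0.00005% Triton X-100. Reaction started with 2 uM Z-FR-AMC; AMC fluorescence increase over 60 s gives rate.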
MARV entry inh – blocks Marburg virus binding to or entry into cells | Marburg virus pseudotyped entry inhibition, cell reporter; control for the full effect not named in the record; about a third of the inactives were read at about 46 µM | Potency, µM (highest dose often 37.8 µM), for inactives: top-dose activity change, negative = inhibition, usual class: inhibitors | 1.8% of 300,000 active | AID 540276; active = well fitted inhibition curve with a large enough effect; inconclusive = small, poorly fitted or top-dose-only effect, or effect the other way; inactive = flat fitted curve, though single readings scatter; tested in HEK293 cells; about a fifth of its hits are not listed in these tables; note: % is set by controls: 0 for no effect and ±100 for the full control effect; luciferase read-out
2A StopGo – FMDV 2A StopGo reporter, luciferase signal. human cells with a luciferase reporter of 2A StopGo recoding; control for the full effect not named in the record. Potency, µM (top dose mostly 57.9 µM), without a hit: at the highest dose signal change, negative = less light. 1.2% of 410,000 active. AID 1159524; active = well fitted falling curve with a large enough effect; inconclusive = small, poorly fitted or top-dose-only effect; inactive = no such curve, though single readings can be large or run the other way; tested in HEK293T cells; note: % is set by controls: 0 for no effect and ±100 for the full control effect; nearly all actives have a fitted effect of over 45% in size; luciferase light after 4 h
Cruzain inh Det – cruzain (T. cruzi) inhibition with detergent. 0.43% of 200,000 active. purified cruzain, Z-FR-AMC fluorescence, 0.01% Triton. AID 1478. P25779. Potency, µM, inactives show max response, negative = inhibition, actives largely listed as inhibitors;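 note: plate controls were neutral wells for no effect and buffer without enzyme for full effect; nearly all actives have a fitted effect of over 40% in size; top concentration of the series not given in the record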
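Enzyme 1.5 nM, Z-FR-AMC 2 uM, NaOAc 100 mM pH 5.5, DTT 5 mM, Triton X-100 0.01%; 15 min RT compound preincubation; kinetic ex360/em450, 60 s delta.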
SARS PLP yeast – blocks SARS-CoV papain-like protease in a yeast assay; S. cerevisiae expressing SARS-CoV PLpro, growth rescue; control for the full effect not named in the record; AID 485353; Potency, µM (titrated, usually from 32.9 µM), without a hit: at the top dose activity, positive = growth rescue; 0.19% of 330,000 active; active means well fitted rising curve with a large enough effect; inconclusive means small, poorly fitted or top-dose-only effect; inactive means no such curve, though single readings can be large or run the other way; note: 0% is about no effect; nearly all actives have a fitted effect of over 55% in size; growth read by luminescence after 48 h
NS1 inh – inhibitors of influenza NS1 protein function. S. cerevisiae slowed by influenza A NS1, growth recovery by OD600. Potency, µM (highest dose often 46.1 µM), for the others: at the top dose activity, positive = more growth. 0.4% of 270,000 active. AID 2326; active means well fitted rising curve with a large enough effect; inconclusive means small, poorly fitted or top-dose-only effect; inactive means no such curve, though single readings can be large or run the other way; note: nearly all actives have a fitted effect of over 50% in size
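Recovery from NS1-induced slow growth read by OD600 in budding yeast switched to galactose assay medium (pH 6.0, -URA) at 1:100 dilution. Compound 23 nl per well; the matching strain lacking NS1 serves as control.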
* marks the source's active call; other numbers are inactive results; ? = inconclusive; / = not tested or not shown; & = joins results of further samples; [ ] = dose if it differs, or a comment. Unless noted, calls come from the whole dose curve; as a rule, active = well fitted curve in the direction sought with a large enough effect; inconclusive = small, poorly fitted or top-dose-only effect, or another doubt; inactive = no such curve, though single readings can be large; an effect the other way counts as inactive or inconclusive. Potency is the fitted concentration of half-maximal effect.

SMILES	Lassa entry inh	RE007 growth inh	Cruzain noTriton	MARV entry inh	2A StopGo	Cruzain inh Det	SARS PLP yeast	NS1 inh
O=C(CSc1ncnc2c1nnn2-c1ccc(F)cc1)NCc1ccco1	-15%	-16%	-7%	-15%	?	-0.7%	9%	4%
CN(C)CCCCCNCCCNC(=O)/C=N\O	10%	-7%	-2%	7%	/	-3.8%	-2%	5%
CCOc1ccc(/C=C/C(=O)N(CC)CC(=O)Nc2ccc3c(c2)OCCO3)cc1OCC	-2%	-17%	/	-11%	11%	/	0%	4%
CCN(CC)CCCCCCCCOC(=O)c1cc(OC)c(OC)c(OC)c1	?	-10%[18.4 µM]	10%	23µM*	-8%&-7%&2%	-3.0%	/	-13%
Cc1c(C(=S)Nc2ccccc2)cnn1-c1ccc([N+](=O)[O-])cc1	-19%	?	1%	?	-29%	-9.0%	-60%	-12%
COc1ccc(NC(=O)CCSc2ccc3ccccc3n2)cc1	-13%	4%	2%	?	0%	-7.3%	0%	-1%
COc1ccc([N+](=O)[O-])cc1NC(=O)c1cn(-c2ccc(Cl)cc2)c(=O)c2ccccc12	7%	-6%	-30%	?	?	-2.9%	-8%	6%
COCCNC(=O)/C(C#N)=C/c1nc(N(C)C)n(-c2ccc(F)cc2)c1Cl	?	11%	/	?	32%[activator]	/	1%	/
CC(=O)Nc1ccc(NC(=O)CSc2ccccn2)cc1	-1%	4%	1%	5%	12%	0.1%	-12%	20%
CCOC(=O)c1c(NS(=O)(=O)c2ccccc2)n(CCCOC)c2nc3ccccc3nc12	9%	-2%	?	?	-17%	-10%	4%	9%
CC(C)/C(=N/Nc1ccccc1[N+](=O)[O-])c1ccccc1	?	10%	/	?	-12%	/	-1%	-9%
NC(=O)c1cc(S(=O)(=O)Nc2ccc(OC(F)(F)F)cc2)cs1	/	-2%	/	/	12%	/	0%	4%

Reprinted from above for reference:
SMILES	Lassa entry inh	RE007 growth inh	Cruzain noTriton	MARV entry inh	2A StopGo	Cruzain inh Det	SARS PLP yeast	NS1 inh
CC(C)/C(=N/Nc1ccccc1[N+](=O)[O-])c1ccccc1	?	10%	/	?	-12%	/	-1%	-9%
NC(=O)c1cc(S(=O)(=O)Nc2ccc(OC(F)(F)F)cc2)cs1	/	-2%	/	/	12%	/	0%	4%

Remaining list, next part:
SMILES	Lassa entry inh	RE007 growth inh	Cruzain noTriton	MARV entry inh	2A StopGo	Cruzain inh Det	SARS PLP yeast	NS1 inh
Cc1ccc(NC(=O)Cn2nnc(-c3nc(-c4ccncc4)no3)c2N)cc1	4%[46.1 µM]	/	-3%	/	-12%	1.9%	/	/
CCOc1cc2c(cc1OCC)C(C(=O)O)C(c1ccc(OC)c(O)c1)N(C)C2=O (stereo not drawn)	1%	-6%	0%	?	7%	3.8%	-7%	8%
CCC(C(=O)Nc1nc(C)cs1)c1ccccc1 (stereo not drawn)	-9%	16%	-21%	-1%[46.1 µM]	-12%	-4.2%	-8%	-16%
CCOCCCNC(=O)/C(C#N)=C/c1ccc(-c2ccc(S(=O)(=O)N3CCOCC3)cc2)o1	?	/	?	?	-11%	-9.2%	-2%	16%
O=C(CN1CCN(c2ccccn2)CC1)N1c2ccccc2CCc2ccccc21	-15%	12%	15%	-23%	-26%	-2.1%	-9%	-14%
Cc1cc2cc(CN(CC3CCCO3)C(=O)c3cnccn3)c(=O)[nH]c2cc1C (stereo not drawn)	-12%	-4%	-1%	2%&2%	0%	4.7%	25%	-3%
Cc1ccc(NC(=O)CN(c2cc(C)cc(C)c2)S(=O)(=O)c2c(C)noc2C)nc1	/	3%	8%	5%	?	-4.1%	-20%	-19%
O=C1NC(=S)N(c2ccccc2F)C(=O)/C1=C\c1cccs1	8%	27%	5%	?	32µM*	-4.5%	-55%	?
Cc1ccc(N2CC(C(=O)Nc3cccnc3)CC2=O)cc1 (stereo not drawn)	-5%	-1%	5%	-2%	7%	-3.5%	3%	2%
COc1ccc([C@@H]2[C@@H]3C(=O)N(C(C)(C)C)C(=O)[C@@H]3[C@]3(C)C(=O)N(c4ccccc4)C(=O)N23)cc1	/	-7%	/	/	0%	/	-15%	11%
C/C(=N\NC(=O)c1nnn(-c2nonc2N)c1CN1CCCCCC1)c1ccc(Br)cc1	?	-10%	/	8%[46.1 µM]	1%	/	0%	1%
N#Cc1cccc(NC(=O)c2sc3nc4c(cc3c2N)N2CCC4CC2)c1	-22%[46.1 µM]	/	-20%	/	-4%	-5.1%	/	/
O=C(O)c1cccc(S(=O)(=O)Nc2ccc(O)cc2Sc2nc3ccccc3s2)c1	2%	44%	-9%	0%	-3%	-6.3%	2%	16%
O=C(Nc1ccc(S(=O)(=O)NCCc2ccccc2)cc1)c1ccncc1	/	-4%	/	/	21%	/	1%	11%
c1ccc(-c2nc3ccccc3nc2N2CCOCC2)cc1	1%	-30%	-13%	-9%	-20%	-3.6%	2%	3%
Cn1nc(C(C)(C)C)c([N+](=O)[O-])c1C(=O)NC(C)(C)C	-3%	0%	7%	0%	9%	-1.8%	12%	9%
CN1C(=O)CC(C(=O)O)SC1=Nc1cccc(C(F)(F)F)c1 (stereo not drawn)	-4%	5%	0%	?	13%	2.6%	2%	-9%
COc1ccc2c(c1)CCCC21NC(=O)N(CC(N)=O)C1=O (stereo not drawn)	2%	3%	-1%	26%	9%	3.9%	-7%	5%
CCCCCn1c(CCNC(=O)CCC)nc2ccccc21	-2%	7%	-5%	-1%	-26%	-21%	11%	-12%
CN(C)S(=O)(=O)c1cccc(NC(=O)c2cc(-c3cccs3)nc3ccccc23)c1	?	18%	16µM*	?	-19%	-3.8%	12%	25%
CCOc1ccc(N(C(=O)Nc2ccccc2)C2=NCCC2)cc1	?	7%	19%	-25%	/	-7.3%	-7%	-17%
Cc1cc(NC(=O)c2cc3n(n2)C(C(F)(F)F)CC(c2ccco2)N3)n(-c2ccccc2)n1 (stereo not drawn)	-24%	-3%	-10%	?	-33%	4.0%	1%	1%
CCOc1cc(/C=N/NC(=S)Nc2ccccc2C(F)(F)F)ccc1OCC(=O)N1CCOCC1	?	16%	?	?	?	-18%	-3%	12%
Cc1ccc(C(=O)COC(=O)CN2C(=O)C3CC=CCC3C2=O)cc1[N+](=O)[O-] (stereo not drawn)	-12%[46.1 µM]	5%	/	-16%[46.1 µM]	-16%	/	/	/
COc1ccccc1NC(=O)/C(C#N)=C/c1c(C)nn(-c2ccc(F)cc2)c1Cl	-13%	8%	2%	1%	0%	-1.5%	13%	0%
O=C(Nc1ccccn1)c1ccco1	6%	-14%	8%	?	/	-1.7%	1%	1%
COc1ccccc1C(=O)Nc1cccc(Oc2c(F)c(F)c(F)c(F)c2F)c1	?	4%	/	-12%[46.1 µM]	-10%	/	-2%	2%
COc1ccc(-c2cc(C(=O)Nc3ccc(S(=O)(=O)Nc4ncccn4)cc3)c3ccccc3n2)cc1	/	-4%	/	/	11%	/	0%	-1%
CCN(CC(=O)Nc1ccc(NC(C)=O)cc1)C(=O)c1cccc(Oc2ccccc2)c1	?	1%	/	-7%	-2%	/	0%	/
Brc1ccc(C2Nc3cccc4cccc(c34)N2)cc1	-9%[46.1 µM]	1%	/	0%[46.1 µM]	-2%	/	/	/
COC(=O)c1cc(S(=O)(=O)Nc2cccc(OC)c2)cn1C	/	8%	/	/	20%	/	4%	3%
Cc1cccc(CCNC(=O)CN(c2ccc(C(C)C)cc2)S(=O)(=O)c2c(C)nn(C)c2C)c1	?	/	?	0%[46.1 µM]	-29%	-2.9%	/	/
O=C(Cn1c(=O)cnc2ccccc21)Nc1cc(Cl)ccc1N1CCOCC1	-12%	-3%	/	-3%	-16%	/	-1%	/
COc1ccc(NC(=O)C2CC(=O)N(c3ccccc3Cl)C2)c(OC)c1 (stereo not drawn)	9%	-7%	/	5%[46.1 µM]	-8%	/	0%	-2%
C=CCOc1ccc(C2C(C(=O)c3ccc(C)o3)=C(O)C(=O)N2Cc2cccnc2)cc1 (stereo not drawn)	-9%	-9%	/	28%[46.1 µM]	4%	/	2%	-8%
CCn1c(SCC(=O)N2CCCc3ccccc32)nnc1-c1cccs1	-28%[14.3 µM]	-9%	-12%	9%	-12%	-0.4%	1%	-4%
CN(C(=O)CCN1C(=O)S/C(=C\c2ccccc2)C1=O)C1CCS(=O)(=O)C1 (stereo not drawn)	/	6%	/	/	-19%	/	17%	-5%
NC(=O)c1ccc[n+](Cc2ccc(-c3ccccc3)cc2)c1	?	7%	/	30%	-4%	/	-1%	2%
CN1CCN(C(=O)c2cc3nc(-c4ccco4)cc(C(F)(F)F)n3n2)CC1	-3%	11%	/	-14%[46.1 µM]	-28%	/	1%	2%
CN(C)S(=O)(=O)c1cccc(NC(=O)COC(=O)c2cc(=O)c3ccccc3o2)c1	/	12%	/	/	-15%	/	0%	7%
O=C(N/N=C/c1ccc(OC(=O)c2cccs2)cc1)c1cccc(F)c1	11%	-9%	20µM*	-33%	53%[activator]	-22%	-6%	1%
Cc1ccc(S(=O)(=O)Oc2cc(N)c3c(n2)CCC3)cc1	-12%[46.1 µM]	10%	1%	?	13%	2.8%	5%	?
O=C(NC(=S)Nc1ccccc1Br)c1cccnc1	/	1%	/	/	0%	/	0%	2%
O=c1c2ccccc2oc2cc(NCCCN3CCOCC3)ccc12	/	-4%	/	/	23%	/	-5%	-7%
CCC/C(O)=C1\C(=O)CC(c2ccccc2)CC1=NCCc1c(C)[nH]c2ccc(C)cc12 (stereo not drawn)	13%	-12%	-3%	18%	-3%	-3.4%	-1%	-10%
CCOc1ccc(C(=O)OCC(=O)N2CCCC2)cc1OCC	0%	2%	/	9%[46.1 µM]	26%	/	1%	-8%
Cc1ccc(C(=O)CCC(=O)Nc2cccnc2)cc1C	0%	-3%	-13%	11%[46.1 µM]	-4%	-1.8%	4%	-2%
O=C(Nc1ccc2c(c1)ncn2C1CCCCC1)c1ccco1	9%	-1%	9%	26%	11%	-0.8%	-5%	-133%
CC1=C(C(=O)OCCOC(C)C)C(c2cccc3ccccc23)NC(=O)N1 (stereo not drawn)	?	11%	/	-37%	-6%	/	/	/
Cc1onc(-c2c(Cl)cccc2Cl)c1C(=O)Nc1ccc(N2CCOCC2)cc1	3%	-1%	/	?	-6%	/	1%	2%
